High-throughput results from PubChem.
KCNQ2 inh: KCNQ2 potassium channel inhibitors, primary screen, cell-based, CHO-K1, FluxOR thallium flux, B-score (AID 2156) | O88943 | 20 min; stronger effect = lower value; only compounds with negative scores are shown here; some inactives read as strong as hits | B-score at 10 µM | 1.1% of 310,000 active;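 active = fluorescence ratio B-score at most minus 3 library SDs, with starting brightness B-score within 2 library SDs, cut at about -5.5 in these data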
Target sequence (O88943 whole entry, looked up): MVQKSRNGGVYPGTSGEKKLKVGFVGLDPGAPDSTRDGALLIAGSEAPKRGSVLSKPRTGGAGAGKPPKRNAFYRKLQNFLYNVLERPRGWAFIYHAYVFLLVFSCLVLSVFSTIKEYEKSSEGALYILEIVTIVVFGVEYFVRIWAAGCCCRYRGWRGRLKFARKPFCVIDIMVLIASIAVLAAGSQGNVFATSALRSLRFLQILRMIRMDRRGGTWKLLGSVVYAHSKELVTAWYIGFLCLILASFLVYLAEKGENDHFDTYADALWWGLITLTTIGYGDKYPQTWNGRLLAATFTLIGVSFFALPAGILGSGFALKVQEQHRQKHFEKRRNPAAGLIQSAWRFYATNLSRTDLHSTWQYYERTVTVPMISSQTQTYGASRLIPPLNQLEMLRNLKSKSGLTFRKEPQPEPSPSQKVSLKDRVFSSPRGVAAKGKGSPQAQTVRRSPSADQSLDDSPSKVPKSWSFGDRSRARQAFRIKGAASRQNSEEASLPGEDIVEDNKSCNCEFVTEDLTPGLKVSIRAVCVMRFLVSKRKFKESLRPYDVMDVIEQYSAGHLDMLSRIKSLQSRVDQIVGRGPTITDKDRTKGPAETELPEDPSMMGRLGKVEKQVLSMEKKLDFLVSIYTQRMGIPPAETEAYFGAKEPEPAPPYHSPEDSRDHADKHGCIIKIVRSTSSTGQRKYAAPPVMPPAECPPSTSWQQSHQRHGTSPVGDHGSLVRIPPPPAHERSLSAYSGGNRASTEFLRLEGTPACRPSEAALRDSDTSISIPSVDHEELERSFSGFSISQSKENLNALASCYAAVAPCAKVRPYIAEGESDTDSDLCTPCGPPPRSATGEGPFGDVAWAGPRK
KCNQ2 inh baseline: second read-out of KCNQ2 inh, no call of its own (marks repeat the call); B-score; measured here: initial fluorescence intensity artifact check;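 brightness before thallium and not channel activity; 0 = typical well and far values either way flag optical interference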
* = called active by the depositor; i = inactive. A portion of the library; the hit share may differ from the screen's.

Compound,KCNQ2 inh,KCNQ2 inh baseline
Fc1ccccc1N1CCN(CC2CCCCC2)CC1,i,-0.08
CCc1cc2ccc(C)cc2nc1SCC(=O)Nc1cc(OC)c(OC)cc1C(=O)O,i,-1.4
O=C1NC(=Nc2ccccc2)S/C1=C\c1cccnc1,i,-1.4
CCCCc1ccc(NC(=O)CSc2nc(=O)n3cc(C)ccc3n2)cc1,i,-0.01
COc1cccc(C(=O)OCC(=O)Nc2nnc(-c3ccccc3)o2)c1,i,-0.39
COc1ccc(NC(=O)c2cc([N+](=O)[O-])nn2Cc2ccccc2)c(C)c1,i,0.53
CC(C)(C)NC(=O)C(c1ccco1)N(Cc1ccc2c(c1)OCO2)C(=O)c1snc(C(N)=O)c1N (stereo unspecified),i,-1.2
CCn1cc(C(=O)N[C@@H](CCSC)C(=O)NCCN2CCOCC2)c(=O)c2cc3c(cc21)OCO3,i,0.39
CCOC(=O)/C=C1\SCC(=O)N1Cc1ccc(Br)cc1,i,2.3
CCCCn1nnnc1SCC(=O)Nc1ccc2c(c1)OCCO2,i,2.4
CN(Cc1nc2ccccc2c(=O)[nH]1)Cc1cc(=O)oc2ccc3ccccc3c12,i,0.03
COCCSc1ccccc1C(=O)N1CCCC1,i,5.9
CC(C)(C)c1n[nH]c2c1CCCC2,i,-0.04
Cc1ccc2c(C)c(C(=O)NCCc3ccco3)oc2c1C,i,-0.13
NS(=O)(=O)c1ccc(NC(=S)N2CCCC2)cc1,i,-1.6
CC1CCN(C(=O)COC(=O)CSc2ccc(C(N)=O)cc2[N+](=O)[O-])CC1,i,-0.2
CCN(CC)CC(=O)Nc1sc2c(c1C(=O)c1ccccc1C)CCC2,i,0.02
CC(=O)Nc1ccc(SC[C@H](c2ccccc2)N2CCN(CCc3ccccc3)CCC2=O)cc1,i,0.43
O=C(Nc1ccccc1O)c1cc(S(=O)(=O)N2CCOCC2)ccc1Cl,i,0.25
CN(C(=O)c1ccc2ccccc2c1)c1ccccn1,i,1.6
O=C(O)c1ccc(/C=C2\SC(=S)N(NC(=O)c3ccc(Br)cc3)C2=O)cc1,i,-1.9
CCOC(=O)C(C(C)=O)c1c(Br)c(O)c(O)c2c(C(=O)c3ccc(C)cc3)coc12 (stereo unspecified),i,-1.1
COc1cc(CNCCSc2nnnn2C)cc(Br)c1OCc1ccccc1,i,0.1
Cc1ccc(Cn2c(C(C)Nc3nc(-c4ccc(F)cc4)cs3)nc3cc(C(=O)NCCCO)ccc32)cc1 (stereo unspecified),i,0.44
Cc1cc2oc(=O)cc(CN(C)Cc3cccc(F)c3)c2cc1Cl,i,1.1
O=C(OCc1ccccc1)/C(=C/c1cccc([N+](=O)[O-])c1)NC(=O)c1ccco1,i,1.1
CC(NCCCOc1cccc2ccccc12)c1ccccc1 (stereo unspecified),i,0.38
Cc1ccc(-c2cc(-c3ccccc3)nc(N)c2C#N)o1,i,-0.56
CC(C)C(C)NC(=O)CN1C(=O)NC2(CCCc3ccccc32)C1=O (stereo unspecified),i,-0.11
CC1(C)CC(N2CCCC2)=CC(=[N+]2CCCC2)C1,i,-0.31
CCCCn1c(-c2cccc3ccccc23)nc2cc3[nH]c(=O)c(C(C)C)nc3cc21,i,2.3
CCN1CCN(c2nc(S(=O)(=O)c3ccc(C)cc3)c(Cl)s2)CC1,i,-0.93
CCC(OC(=O)c1ccco1)C(=O)NC1CCCC1 (stereo unspecified),i,1.1
CSc1nc2ccccc2n1CC(=O)Nc1c(C)n(C)n(-c2ccccc2)c1=O,i,3.2
CCOC(=O)/C(C#N)=C/c1c(OCC)n(CC)c2ccccc12,i,-0.37
Cc1ccc(NC(=S)N(Cc2ccc(Cl)cc2)Cc2ccc(C(=O)O)cc2)cc1Cl,i,0.13
CCOC(=O)/C(C#N)=C/c1cn(CCC(=O)O)nc1-c1ccc(F)cc1,i,0.67
Cc1onc(-c2ccccc2)c1C(=O)Nc1nc(-c2ccc(F)c(F)c2)cs1,i,-1.2
CCOc1ccc(Nc2nc(N)nc(CN(C)C3CCCCC3)n2)cc1,i,-0.35
N#CCSc1nnc(-c2ccc3c(c2)OCO3)o1,i,1.5
O=C(NCCCN1CCN(c2cccc(Cl)c2)CC1)C1CCC(=O)N1Cc1ccccc1Cl (stereo unspecified),i,-1.4
CCN1C(=O)N(c2cccc3ccccc23)C(C)=CC1(C)C,i,0.31
COc1ccccc1-n1c(SCC(=O)N2CCOCC2)nc(O)c(Cc2ccccc2)c1=O,i,2
O=C(O)CSc1nnc(COc2cccc3cccnc23)n1-c1ccc(Cl)cc1,i,2.8
O=C(CSc1ccc2c(c1)OCCO2)Nc1ccc(Br)cn1,i,-1.7
CCOC(=O)c1cc2occc2n1Cc1c(F)cccc1Cl,i,-0.79
Cc1ccc(Cn2cccc(-c3nc4ccccc4s3)c2=O)cc1,i,0.72
Cc1nn(C)cc1CN(C)Cc1ccc(OCC(O)CN2CCCCC2)cc1 (stereo unspecified),i,-1.8

Given with values under each structure: entries from further up.
Sequence of screens: KCNQ2 inh, KCNQ2 inh baseline
CCOC(=O)/C(C#N)=C/c1cn(CCC(=O)O)nc1-c1ccc(F)cc1
  i, 0.67
Cc1onc(-c2ccccc2)c1C(=O)Nc1nc(-c2ccc(F)c(F)c2)cs1
  i, -1.2
CCOc1ccc(Nc2nc(N)nc(CN(C)C3CCCCC3)n2)cc1
  i, -0.35
N#CCSc1nnc(-c2ccc3c(c2)OCO3)o1
  i, 1.5
O=C(NCCCN1CCN(c2cccc(Cl)c2)CC1)C1CCC(=O)N1Cc1ccccc1Cl (stereo unspecified)
  i, -1.4

Remaining list, next part:
Compound,KCNQ2 inh,KCNQ2 inh baseline
Cn1c(CNC(=O)c2ccco2)nnc1SCCOc1ccccc1,i,-1.9
CCOC(=O)c1sc(NC(=O)CSc2n[nH]c(-c3ccc(Cl)cc3Cl)n2)c(C#N)c1C,i,-0.62
COc1cc2[nH]c(=S)nc(NCC3CCCO3)c2cc1OC (stereo unspecified),i,0.14
Cc1ccc(S(=O)(=O)N2CC=C(c3ccc(F)cc3)CC2)cc1,i,-0.07
CSc1nnc(-c2ccccc2Cl)n1N,i,0.17
CCS(=O)(=O)N1CCCC(C(=O)NCCN2CCC(Cc3ccccc3)CC2)C1 (stereo unspecified),i,-0.43
Nc1nnc(SCC(=O)NCc2ccc3c(c2)OCO3)s1,i,3.3
CCOC(=O)CSc1nnc(-c2ccco2)n1-c1ccc(C)cc1,i,-1.4
Cc1cc2c3c([nH]c2cc1S(=O)(=O)NCCCOC(C)C)CC(C)(C)CC3=O,i,-0.2
O=C(O)c1cccc(NC2=C(Cl)C(=O)c3ccccc3C2=O)c1,-7.6*,-5.4*
Cc1ccc(/C(=C\CN2CCCC2)c2ccccn2)cc1,i,1.8
C(=C\CSc1ncn[nH]1)/CSc1ncn[nH]1,i,3.5
O=C(Cc1ccc(Cl)cc1)N1CCc2ccccc2C1,i,1.3
Cc1ccc(NC(=O)COC(=O)C2=COCCO2)cc1,i,-3
CC(C)c1ccc(NC2CCCN(C(=O)c3cnsn3)C2)cc1 (stereo unspecified),i,-0.53
O=C(CN1CCOCC1)Nc1ccc(NC(=O)CN2CCOCC2)c(Cl)c1,i,0.03
O=C(NNC1=NS(=O)(=O)c2ccccc21)c1ccc([N+](=O)[O-])cc1,i,-2.5
Cn1c(CN2CCOCC2)c(C#N)c2ccccc21,i,0.33
Cc1ccc(S(=O)(=O)NNC(=O)c2ccoc2C)cc1,i,0.19
COc1ccc(/C=N/Nc2ccccn2)c(OC)c1OC,i,0.04
O=C(c1ccc(F)cc1)[C@@H]1[C@@H](C(=O)c2ccccc2)[C@@]2(C(=O)Nc3ccccc32)[C@H]2c3ccccc3C=CN12,i,-1.3
CC(C)(C)OC(=O)NC(CC(=O)OCc1ccccc1)C(=O)O (stereo unspecified),i,0.86
CCOc1ccccc1NC(=S)N1CCC(NC(=O)c2ccco2)CC1,i,-0.79
CCc1ccc(OCC(=O)N2c3ccccc3CCc3ccccc32)cc1,i,0.6
CCOC(=O)Cc1c(C)nc2c(-c3ccc(OC)cc3)c(C)nn2c1C,i,1.1
CCOc1ccc(NC(=S)Nc2cc(OC)c(Cl)cc2OC)cc1,i,0.7
Cc1nn(C)c(C(=O)Nc2ccn(Cc3c(F)c(F)cc(F)c3F)n2)c1[N+](=O)[O-],i,0.92
CC(C)(C)n1nnnc1C(c1ccccn1)N(Cc1ccccc1)Cc1ccc(Cl)cc1 (stereo unspecified),-7.7*,-0.38*
COc1cccc(CN(C)CC(=O)Nc2ccccc2C(=O)Nc2ccccc2)c1,i,-0.56
Cc1ccc(C)c(C(=O)CSc2nnnn2C(C)C)c1,i,-1.9
Cc1n[nH]c(=O)c2c(NC(=O)COC(=O)c3ncc(Cl)c(Cl)c3Cl)oc(C)c12,i,1.7
O=C(COc1ccccc1Br)NC1CCCC1,i,-0.67
COc1cccc2cc(C(=O)NC(C)c3ccccc3)c(=O)oc12 (stereo unspecified),i,1.2
O=C(C1=C(O)C(=O)N(CCN2CCOCC2)C1c1ccco1)c1cc2ccccc2o1 (stereo unspecified),i,0.4
Cc1ccccc1-n1nc2c(c1NC(=O)c1cc3ccccc3oc1=O)CS(=O)(=O)C2,i,-0.62
CCOc1ccccc1N1CCN(S(=O)(=O)c2ccc(F)c(F)c2)CC1,i,1.3

One compound at a time, from the list above:
`Cc1ccccc1-n1nc2c(c1NC(=O)c1cc3ccccc3oc1=O)CS(=O)(=O)C2` in the list: KCNQ2 inh = i; KCNQ2 inh baseline = -0.62
`O=C(COc1ccccc1Br)NC1CCCC1` in the list: KCNQ2 inh = i; KCNQ2 inh baseline = -0.67

(list continues)
Compound,KCNQ2 inh,KCNQ2 inh baseline
CC(Cn1cnc2ccccc21)C(=O)O (stereo unspecified),i,0.83
COC(=O)c1ccc(OCC2c3cc(OC)c(OC)cc3CCN2C(=O)C2CC2)cc1 (stereo unspecified),i,0.01
COc1ccc(N(C)C(=O)CCS(=O)(=O)c2cccc3nonc23)c(OC)c1,i,0.73
Cc1ccc(/C=C/C(=O)Nc2cccc3ncccc23)o1,i,0.53
CCCCN(CC)C(=O)CSc1cc(=O)n(C)c2ccccc12,i,1.7
COc1ccc(OCC(O)CN2CCCC2)cc1 (stereo unspecified),i,0.96
O=C(CSc1nncn1-c1ccccn1)Nc1cccc(Cl)c1,i,2.5
CC(=O)Nc1ccc(N(C(=O)Cc2cccs2)C(C(=O)NC2CCCC2)c2ccncc2)cc1 (stereo unspecified),i,-0.08
O=C(NCCCn1ccnc1)C(=O)c1c[nH]c2ccccc12,i,1.1
O=C(c1nnc(Cc2ccc(Cl)cc2)o1)N1CCc2ccccc2C1,i,0.34
Cc1onc(-c2c(Cl)cccc2Cl)c1C(=O)c1c[nH]c(C(=O)NCCCN2CCOCC2)c1,i,0.92
Cc1ccc(S(=O)(=O)c2c(COC(=O)c3ccccc3Cl)c(-c3ccccc3)nn2C)cc1,i,0.05
COc1ccc(O)c(-c2c(-c3ccc(Cl)cc3)n[nH]c2C)c1,i,1.2
CC(C)(C)C(=O)Oc1ccc2cc(-c3ccc4ccccc4n3)c(=O)oc2c1,i,0.93
CC(C)(C)SCCNC(=O)/C=C/c1ccccc1,i,-0.02
CC(C)C(NS(=O)(=O)c1cc(C(=O)O)ccc1Cl)C(=O)O (stereo unspecified),i,-0.66
Cc1ccc(/C=C/C(=O)NCCc2cccc(Cl)c2)o1,i,0.79
CC1CCCN(S(=O)(=O)c2ccc(Cl)s2)C1 (stereo unspecified),i,-1.9
COc1ccc(/C=N/NC(=O)CNc2c(Br)cc(C)cc2Br)c(C(=O)O)c1OC,i,2
O=C(Nc1c(Cl)ccc2nsnc12)c1ccco1,i,-0.08
CCOC(=O)N1CCN(Cc2c(NC(=O)c3ccco3)sc(C)c2C)CC1,i,1.4
COCCNC(=O)C(c1ccc(C)cc1)N(C(=O)C(=O)NC1CCCC1)c1ccc2c(c1)OCCO2 (stereo unspecified),i,-1.3
O=C(NCc1ccncc1)Nc1ccc(F)cc1,i,-1.3
Nc1nc(CN2CCN(C(=O)c3ccco3)CC2)nc(Nc2cccc(Cl)c2)n1,i,-0.16
CN(CC(=O)Nc1sccc1C#N)C1CCCCC1,i,-0.47
COCCNC(=O)c1c(N)n(/N=C/c2cccs2)c2nc3ccccc3nc12,i,2.2
O=C(NCCCO)c1nc2ccccc2s1,i,-0.34
CCN1CCN(c2c(Cl)cccc2NC(=O)c2ccc([N+](=O)[O-])o2)CC1,i,-0.12
CN(C)CCCNC(=S)N(CCO)Cc1cc2cc3c(cc2[nH]c1=O)OCO3,i,0.08
COc1cccc(S(=O)(=O)NCc2ccc(C(=O)NCc3ccco3)cc2)c1,i,-0.14
c1ccc(-c2noc(CN3CCN(c4ccccc4)CC3)n2)cc1,i,0.04
COc1ccc(C2(C(=O)Nc3ccc(S(=O)(=O)Nc4nc(C)cc(C)n4)cc3)CCCC2)cc1OC,i,-0.4
CC(C(=O)O)N1C(=O)C2C3c4ccccc4C(c4ccccc43)[C@@H]2C1=O (stereo partly specified),i,0.21
